Screening data deposited in PubChem BioAssay by National Center for Advancing Translational Sciences (NCATS).
ClpP mod: qHTS Assay for Activators of ClpP. ATP-dependent Clp protease proteolytic subunit (Bacillus subtilis (strain 168)), P80244. purified B. subtilis ClpP, FRET peptide cleavage, 20 min. Potency, µM (top dose mostly 57.5 µM), without a hit: at the highest dose activity change, negative = active. 340,000 compounds, 1.9% hits. AID 651965, 2013; active = well fitted falling curve with a large enough effect; inconclusive = small, poorly fitted or top-dose-only effect; inactive = no such curve, though single readings can be large or run the other way; also: potency is read from the fitted curve at half-maximal effect; the source files actives as falling curves though it sought activators and does not explain the sign; nearly all actives have a fitted effect of over 65% in size; many hits overshoot -100%
Target sequence (P80244 whole entry, looked up): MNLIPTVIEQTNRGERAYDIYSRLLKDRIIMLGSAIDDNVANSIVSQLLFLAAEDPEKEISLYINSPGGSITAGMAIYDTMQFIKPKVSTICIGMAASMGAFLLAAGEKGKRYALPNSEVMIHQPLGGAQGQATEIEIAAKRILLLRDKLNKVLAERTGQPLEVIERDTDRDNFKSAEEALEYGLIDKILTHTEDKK
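Purified B. subtilis ClpP, 10 microg/mL final in Tris/HCl pH8 with KCl, BSA, glycerol and Tween-20, cleaved an Abz/nitrotyrosine-quenched decapeptide. Fluorescence (ex 320, em 430) was read at 0 and 20 min at room temperature. Delta was normalized to 5.8 microM ADEP and DMSO/no-enzyme controls.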
TRPML1 blocker: qHTS for Inhibitors of the Human Mucolipin Transient Receptor Potential 1 (TRPML1). 390,000 compounds, 0.02% hits. TRPML1-inducible cells, Ca2+ dye fluorescence, FDSS; hits give low values; inhibition of EC80 agonist-evoked calcium signal. activity change, negative = inhibition, % (test concentration not listed). Mucolipin-1 (Homo sapiens), Q9GZU1; in the data active means activity change below about -50%; inconclusive means about -30% to -50%; inactive means above about -30%;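 also: stimulus is agonist 54-4 at its EC80 concentration; % is scaled to controls: 0 for no effect and ±100 for the full control effect; compound concentration not given in the record; the text of the record puts the active cut at -80%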
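Calcium fluorescence in TRPML1-DL cells induced overnight with Tet: a 110 s read after compound pin addition, then a 110 s antagonist read after challenge with 54-4 at 4 uM final (EC80).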
* marks the source's active call; other numbers are inactive results; ? = inconclusive. Not all compounds are listed (hit frequency here may not be typical).

N#Cc1ccccc1CN1C(=O)c2ccccc2Sc2ccc(C(=O)OCc3ccco3)cc21
  ClpP mod: -2.8%
  TRPML1 blocker: -11.2

O=C(Nc1ccccc1)c1nc[nH]c1C(=O)O
  ClpP mod: -0.6%
  TRPML1 blocker: -7.6

COCCNc1nc(NCc2ccccc2OC)c2cnn(C)c2n1
  ClpP mod: -11.5%
  TRPML1 blocker: 2.5

Cc1c(Cl)cccc1NC(=O)N1CCN(Cc2cc(=O)n3nc(-c4ccccc4F)sc3n2)CC1
  ClpP mod: -4.1%
  TRPML1 blocker: 2.0

Cc1cccn2c(Nc3ccccc3)c(-c3ccc(N4CCOCC4)cc3)nc12
  ClpP mod: 3.8%
  TRPML1 blocker: -3.6

CCCN(CCC)CCCNC(=O)C1CCC(CNS(=O)(=O)c2ccc(NC(C)=O)cc2)CC1 (stereo not drawn)
  ClpP mod: 0.8%
  TRPML1 blocker: -9.5

Cc1oc2c(c(C)cc3oc(=O)c(CC(=O)NCCc4ccccc4F)c(C)c32)c1C
  ClpP mod: 4.2%
  TRPML1 blocker: 20.6

CCOc1ccc(S(=O)(=O)c2cc3cccc(OCC)c3oc2=O)cc1
  ClpP mod: -1.5%
  TRPML1 blocker: 13.0

CCn1c(=O)c(=O)n(CC)c2cc(N3CCCCC3)c(NC(=O)c3cccc(F)c3)cc21
  ClpP mod: -5.5%
  TRPML1 blocker: 23.3

Cc1cc(NC(=O)C2(C)CCN2C(C)C)c2ccccc2n1 (stereo not drawn)
  ClpP mod: ?
  TRPML1 blocker: 54.4

Cc1ccc(S(=O)(=O)c2c(Nc3ccccc3)sc(C(=O)c3ccc4c(c3)OCO4)c2N)cc1
  ClpP mod: -11.6%
  TRPML1 blocker: 14.1

O=S(=O)(c1ccc(Cl)cc1)c1nc(-c2ccco2)oc1SCc1ccccc1F
  ClpP mod: -4.5%
  TRPML1 blocker: 1.7

CCOC(=O)c1c(NC(=O)CCCOc2ccccc2C)sc2c1CCC(C)C2 (stereo not drawn)
  ClpP mod: -7.7%
  TRPML1 blocker: 3.9

COc1ccc(NC(=O)Cn2c(=O)n(CC(=O)NCCc3ccccc3)c(=O)c3ccccc32)cc1
  ClpP mod: -3.0%
  TRPML1 blocker: -3.4

O=C(CSc1nc2c(sc3ccccc32)c(=O)n1CCCC(=O)NC1CCCC1)Nc1ccc(F)cc1
  ClpP mod: ?
  TRPML1 blocker: 13.0

Cc1ccc(N(CC(=O)NCc2ccc(Cl)cc2)S(=O)(=O)N(C)C)cc1
  ClpP mod: -2.2%
  TRPML1 blocker: 0.9

Cc1ccc(OCC(=O)Nc2ccc(S(=O)(=O)N(Cc3ccccc3)c3ccccc3)cc2)cc1
  ClpP mod: -1.8%
  TRPML1 blocker: -10.9

COCCCNC(=O)c1ccc2c(c1)nc1n2CCCCC1
  ClpP mod: -1.8%
  TRPML1 blocker: 2.7

CCOc1ccccc1N(C)C(=O)NCc1noc2ccccc12
  ClpP mod: 0.9%
  TRPML1 blocker: -24.7

O=C(Nc1cccc(C(=O)N2CCN(c3cccc(Cl)c3)CC2)c1)c1nsc2ccccc12
  ClpP mod: -8.0%
  TRPML1 blocker: 9.8

Cc1cc(C)cc(NC(=O)c2cc(S(=O)(=O)NCCC3=CCCCC3)ccc2F)c1
  ClpP mod: -5.2%
  TRPML1 blocker: 16.4

Cc1ccc(C)c(OC(=O)CSc2nnc(-c3ccc4c(c3)OCO4)o2)c1
  ClpP mod: 7.6%
  TRPML1 blocker: 15.7

O=C(CCc1ccccc1)NCCc1csc(-c2cccc(F)c2)n1
  ClpP mod: -8.2%
  TRPML1 blocker: 6.0

O=C1CCCc2cc(S(=O)(=O)N3CCCC(C(=O)NCc4ccccc4)C3)ccc2N1 (stereo not drawn)
  ClpP mod: 0.8%
  TRPML1 blocker: 7.6

Cc1ccccc1CNC(=O)CN1C(=O)C2CCCCN2c2ccc(C(=O)N3CCCC3)cc21 (stereo not drawn)
  ClpP mod: -10.4%
  TRPML1 blocker: -2.6

CCc1cccc(NC(=O)CSc2ncc3c(n2)-c2cc(Cl)ccc2N(C)S3(=O)=O)c1
  ClpP mod: 0.9%
  TRPML1 blocker: -2.4

A section from the list above, for reference:
CCOC(=O)c1c(NC(=O)CCCOc2ccccc2C)sc2c1CCC(C)C2 (stereo not drawn)
  ClpP mod: -7.7%
  TRPML1 blocker: 3.9

COc1ccc(NC(=O)Cn2c(=O)n(CC(=O)NCCc3ccccc3)c(=O)c3ccccc32)cc1
  ClpP mod: -3.0%
  TRPML1 blocker: -3.4

O=C(CSc1nc2c(sc3ccccc32)c(=O)n1CCCC(=O)NC1CCCC1)Nc1ccc(F)cc1
  ClpP mod: ?
  TRPML1 blocker: 13.0

Cc1ccc(N(CC(=O)NCc2ccc(Cl)cc2)S(=O)(=O)N(C)C)cc1
  ClpP mod: -2.2%
  TRPML1 blocker: 0.9

Cc1ccc(OCC(=O)Nc2ccc(S(=O)(=O)N(Cc3ccccc3)c3ccccc3)cc2)cc1
  ClpP mod: -1.8%
  TRPML1 blocker: -10.9

COCCCNC(=O)c1ccc2c(c1)nc1n2CCCCC1
  ClpP mod: -1.8%
  TRPML1 blocker: 2.7

CCOc1ccccc1N(C)C(=O)NCc1noc2ccccc12
  ClpP mod: 0.9%
  TRPML1 blocker: -24.7

O=C(Nc1cccc(C(=O)N2CCN(c3cccc(Cl)c3)CC2)c1)c1nsc2ccccc12
  ClpP mod: -8.0%
  TRPML1 blocker: 9.8

Cc1cc(C)cc(NC(=O)c2cc(S(=O)(=O)NCCC3=CCCCC3)ccc2F)c1
  ClpP mod: -5.2%
  TRPML1 blocker: 16.4

Cc1ccc(C)c(OC(=O)CSc2nnc(-c3ccc4c(c3)OCO4)o2)c1
  ClpP mod: 7.6%
  TRPML1 blocker: 15.7

O=C(CCc1ccccc1)NCCc1csc(-c2cccc(F)c2)n1
  ClpP mod: -8.2%
  TRPML1 blocker: 6.0
